Screens: PubChem BioAssay, several laboratories
Mtb hypoxia inh: PubChem AID 1159583 | M. tuberculosis hypoxia-regulated fluorescent reporter, fluorescence | fluorescence inhibition, % (concentration not given with the values) | hit rate 0.1% among 300,000;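 active = 35 to 45% if threefold the growth effect, above 45% if 1.5-fold the growth effect; inactive = the rest, general growth blockers included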;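 note: wells of about 50 µL received 100 nL stock; 0% = vehicle wells and 100% = reference inhibitor wells; whole bacteria with a GFP reporter of the hypoxia response; strong numbers were not always called active; many hits fall short of the cut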
Bead autofluor: flagged as autofluorescent in microsphere protease counterscreen; compound autofluorescence counterscreen, microsphere flow cytometry; hits give high values; fluorescence intensity (no concentration beside the values); hit rate 3.1% among 360,000; AID 624483;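 active = at least 3 SD above the mean of all compounds, about 16000 in these data; inconclusive = too few beads counted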;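 note: 100 nL of 1 mM stock went into each well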
PrP 5UTR inh: inhibition of PrP 5' UTR reporter expression; cell-based PrP 5' UTR mRNA reporter, plate reader; inhibition, % (test concentration not listed); hit rate 0.35% among 340,000; AID 488862, 2010;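 active = every replicate at 50% or more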;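 note: 0 = median of the neutral control wells; tested in H4 reporter cells; numbers are from one replicate; inactives centre near -14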
Sa RN4220 lethal: growth inhibition of S. aureus RN4220, primary screen, OD600; 16 h; inhibition, % (concentration not given with the values); hit rate 0.33% among 330,000; AID 1259311, 2017;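 active = z-score of -3 or lower and OD600 up to 0.18 on both plates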;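 note: plate controls were untreated cells for no effect and reference antibiotic for full effect; stock transfer was 100 nL into about 80 µL; one replicate is shown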
Sa ugtP lethal: growth inhibition of ugtP-null S. aureus, primary screen, RN4220 ugtP deletion, OD600 | AID 1259309, 2017 | growth inhibition, % (concentration not given with the values) | 16 h; some inactives read as strong as hits | hit rate 0.54% among 330,000;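 active = z-score under -3 and OD600 up to 0.15 on both plates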;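 note: plate controls were untreated wells for no effect and antibiotic for full effect; wells of about 80 µL received 100 nL stock; the first replicate is given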
BJeLR lethal: MLPCN primary cell-based screen for lethality selective to Ras in HRASV12 cells; BJeLR (HRASV12) viability, CellTiter-Glo ATP luminescence, 48 h; reference of the scale not given here; inhibition, % (no concentration beside the values); hit rate 0.17% among 300,000;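 active = replicate mean above 50%; inconclusive = above 50% but judged a plate artefact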;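 note: 50 nL library stock added to about 25 µL; numbers are from one replicate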
Mtb hypoxia inh growth: recorded beside Mtb hypoxia inh, whose call it bears; growth inhibition, %; measured here: M. tuberculosis growth (absorbance);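 0% = vehicle and 100% = reference antibiotic; read after six days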
Starred values were filed as active, the others as inactive; ? = inconclusive; · = no result given. Not a hit list; overall some 4% were active at least once.

nr	SMILES	Mtb hypoxia inh	Mtb hypoxia inh growth	Bead autofluor	PrP 5UTR inh
1	CC(=O)Nc1cc(N=Cc2ccc(O)cc2O)c(Cl)cc1Cl	7	4	2100	-34
2	COc1ccc(C=O)cc1CN1C(=O)c2ccccc2C1=O	8	3	3777	11
3	O=C(c1ccc(S(=O)(=O)N2CCCC2)cc1)N1CCCC(C(F)(F)F)C1 (stereo unspecified)	0	-5	5636	-28
4	CCCCN(C(=O)c1ccc(NC2CC2)c([N+](=O)[O-])c1)c1c(N)n(CC(C)C)c(=O)[nH]c1=O	-4	2	?	-15
5	O=C(NCc1ccccc1)C1CCCN1S(=O)(=O)c1cccc2cccnc12 (stereo unspecified)	·	·	5433	-10
6	CSCc1cc(N(C)C)nc(SCc2ccc(Cl)c(Cl)c2)n1	2	5	13207	-6
7	O=C(NC(=S)N1CCN(c2ccc([N+](=O)[O-])cc2)CC1)c1ccc(F)cc1	16	5	1904	-6
8	CCN(CCCNC(=O)c1cc2c(-c3cccc(OC)c3)nn(C)c2s1)Cc1ccccc1	5	2	8042	-6
9	NS(=O)(=O)c1ccc(CNC(=O)CSc2ccccc2)cc1	8	0	3346	-11
10	Cc1cc(C(=O)CSc2nc(N)cc(=O)[nH]2)c(C)n1CC1CCCO1 (stereo unspecified)	6	-3	3989	-17
11	CCCCN(CCCC)C(=O)c1nsnc1-c1ccccc1O	6	6	11568	-23
12	CCOC(=O)C1(CC2CCCCO2)CCN(C(=O)Nc2ccc(SC)cc2)CC1 (stereo unspecified)	0	-12	4246	-23
13	CN1CCN(C(=S)c2ccc(-c3cccc(Cl)c3Cl)o2)CC1	11	3	9834	-39
14	Cc1cccc(NC(=O)Cc2c(F)cccc2Cl)n1	1	-4	4204	-69
15	Cc1c(C(=O)O)c2cc(O)ccc2n1-c1ccccc1	15	23	3650	-26

nr	Sa RN4220 lethal	Sa ugtP lethal	BJeLR lethal
1	3.8	-4	-1
2	2.2	2	5
3	3.2	1	8
4	-0.4	0	·
5	5.6	5	1
6	3.4	31	15
7	-0.3	10	-3
8	-3.3	26	-2
9	5.4	0	-1
10	2.5	-3	·
11	7.8	2	0
12	2.0	-1	3
13	1.8	15	-2
14	2.1	0	9
15	7.7	-4	11

(further entries)
nr	SMILES	Mtb hypoxia inh	Mtb hypoxia inh growth	Bead autofluor	PrP 5UTR inh
16	COCCCn1c(=N)c(C(=O)NCc2ccc3c(c2)OCO3)cc2c(=O)n3ccccc3nc21	3	9	22332*	-15
17	Oc1c(Cl)cccc1Cc1cc(Cl)cc(Cl)c1O	12	6	4378	-54
18	CC(C)C(=O)N1CCN(c2ccccc2NC(=S)NC(=O)/C=C/c2ccco2)CC1	11	-1	4328	-3
19	COc1cccc(OC)c1C(=O)NCCOc1cc(C)cc(C)c1	16	2	4489	-32
20	CN1CCN(NC(=O)CN2C(=O)/C(=C/c3c(Cl)cccc3Cl)SC2=S)CC1	4	10	4385	-14
21	N/C(=N\OC(=O)c1cc(Cl)ccc1Cl)c1ccncc1	10	6	2423	-60
22	Cc1ccc(-n2ncc3c(Nc4c(C)n(C)n(-c5ccccc5)c4=O)ncnc32)c(C)c1	-1	1	12444	-21
23	COc1c2c(cc3c1C(CC(O)Cc1ccccc1)N(C)CC3)OCO2 (stereo unspecified)	4	4	3099	-3
24	O=C(NC1CCCCC1)c1cc(S(=O)(=O)N2CCN(c3ccccc3)CC2)ccc1Cl	2	8	4120	-21
25	CCN(CC)c1nc2c(s1)C(=O)CC(C)(C)C2	13	9	3339	-23
26	Cc1ccc(S(=O)(=O)N2CCC(=O)N(CCOCc3cccc(Cl)c3)CC2)cc1	7	-1	3720	-16
27	CCNc1nc(NCC)nc(SCCOC(=O)COc2ccc(Cl)cc2Cl)n1	10	8	8316	5
28	CC1=NN(C(=O)c2ccc(Cn3nc(C)cc3C)o2)C(O)(C(F)(F)F)C1 (stereo unspecified)	5	6	10389	·
29	CC(=O)N/N=C(\C)CC(=O)Nc1cccc2c1CCCC2	·	·	4333	-27
30	Cc1ccccc1OCC(=O)OC(C)C(=O)NC1CCCC1 (stereo unspecified)	-1	-3	5969	-16

nr	Sa RN4220 lethal	Sa ugtP lethal	BJeLR lethal
16	2.8	-3	-6
17	100*	100*	·
18	2.0	62	·
19	1.2	1	4
20	5.5	18	0
21	7.4	5	1
22	2.7	1	-13
23	6.6	9	-17
24	2.7	1	·
25	4.1	5	-1
26	-4.6	-8	1
27	4.3	-6	1
28	3.5	2	3
29	·	·	-3
30	5.2	0	·

New compounds follow:
nr	SMILES	Mtb hypoxia inh	Mtb hypoxia inh growth	Bead autofluor	PrP 5UTR inh
31	O=C(CN1CCN(C(=O)c2ccccc2Cl)CC1)Nc1cccc(S(=O)(=O)N2CCCC2)c1	12	11	3243	-1
32	COc1ccc(NC(=O)N(C2CCCCC2)C(C)c2ccco2)c(OC)c1 (stereo unspecified)	7	9	12588	-13
33	CC1c2ccccc2N(NC(=O)Cc2ccccc2)C1C (stereo unspecified)	0	-1	3956	-30
34	Cc1cccc(C)c1NC(=O)CN1CCN(C(=O)C2CCC2)CC1	11	0	·	-5
35	CCOC(=O)N1CCN(C(c2ccc(Cl)cc2)c2sc3nc(C)nn3c2O)CC1 (stereo unspecified)	4	12	5016	-4
36	COc1cccc(Nc2nc(-c3cccs3)nc3ccccc23)c1	3	3	2882	-18
37	COc1ccc(NC(=O)CSc2nnc(C3CC3)n2-c2ccccc2)cc1	0	0	6319	·
38	Nc1nc(Nc2cccc(C(F)(F)F)c2)nc(C(F)(F)F)n1	·	·	2689	-7
39	CCc1cccc(N(C(=O)c2csnn2)C(C(=O)NC2CCCCC2)c2ccncc2)c1 (stereo unspecified)	-3	2	3636	-9
40	CC(=NNC(=O)c1ccccc1C)c1ccc(N2CCOCC2)cc1	0	1	·	·
41	c1ccc(-n2nnnc2Cc2nnnn2-c2ccccc2)cc1	4	7	3330	-11
42	O=C(O)c1ccc(S(=O)(=O)N2CCSCC2)cc1	-5	2	3191	-4
43	Cc1ccc(C(=O)Nc2nnc(CC(=O)N/N=C/c3ccncc3)s2)cc1	·	·	2700	-23
44	CC(OC(=O)C1CC(=O)N(Cc2ccccc2)C1)C(=O)Nc1ccccc1[N+](=O)[O-] (stereo unspecified)	6	3	?	-21
45	Cc1cc(OCC(=O)Nc2ccc(CCO)cc2)c2c(C)c(C)c(=O)oc2c1	-6	-1	6600	-12

nr	Sa RN4220 lethal	Sa ugtP lethal	BJeLR lethal
31	3.4	7	·
32	2.3	-13	1
33	4.3	11	-5
34	4.4	7	·
35	-11	-2	8
36	28	68	-9
37	1.5	6	6
38	-0.7	-13	-1
39	2.3	10	2
40	-1.0	4	·
41	-1.5	2	5
42	4.5	0	2
43	·	·	0
44	1.8	4	3
45	5.5	10	-7

The list goes on:
nr	SMILES	Mtb hypoxia inh	Mtb hypoxia inh growth	Bead autofluor	PrP 5UTR inh
46	Cc1noc(C)c1NC(=O)N(C)CC1Oc2ccc(NS(=O)(=O)c3cccs3)cc2C(=O)N(C(C)CO)CC1C (stereo unspecified)	10	13	·	·
47	O=[N+]([O-])c1ccc(N(CCO)Cc2ccccc2)c([N+](=O)[O-])c1	10	6	3786	0
48	CCOC(=O)C1(Cc2ccccc2C(F)(F)F)CCN(C2CCC2)CC1	-9	1	4600	-20
49	COC(=O)[C@]1(Cc2ccccc2)N[C@H](CN(C)C(=O)Nc2ccccc2)[C@@H]2C(=O)N(Cc3ccccc3)C(=O)[C@@H]21	-2	6	4015	4
50	CCOC(=O)c1nc(C)nc(Sc2n[nH]c(-c3ccc(C(C)(C)C)cc3)n2)c1C	1	-2	6309	-18
51	COc1ccccc1NS(=O)(=O)c1cc([N+](=O)[O-])ccc1NN=Cc1sc(N2CCOCC2)nc1-c1ccccc1	12	13	·	·
52	N#Cc1ccccc1Cn1c(=O)n(Cc2ccc(C(=O)NCc3ccco3)cc2)c(=O)c2ccccc21	·	·	4743	16
53	COc1ccc(NC(=O)c2ccccc2-c2ccccc2C(=O)O)cc1	·	·	3632	-9
54	Clc1ccccc1CN1CCN(/N=C/C=C/c2ccco2)CC1	·	·	4292	-43
55	CCOc1ccc(N(CC(=O)NN=C(C)c2cccc(NC(C)=O)c2)S(=O)(=O)c2ccccc2)cc1	-10	-3	·	·
56	COCC(=O)Nc1nnc(-c2cccs2)s1	·	·	3137	-20
57	O=C(NCc1ccccn1)C1CCC(=O)N1C1CCCC1 (stereo unspecified)	0	2	4178	-4
58	Cc1ccccc1OCC(=O)NN=C1CCOc2c(C)cccc21	0	5	·	·
59	COC(=O)C(Cc1ccc(O)cc1)NC(=O)NC12CC3CC(CC(C3)C1)C2 (stereo unspecified)	0	8	4077	-1
60	O=C(COc1ccc2oc3c(c2c1)CCCC3)Nc1ccccn1	·	·	3752	-78

nr	Sa RN4220 lethal	Sa ugtP lethal	BJeLR lethal
46	6.7	0	·
47	3.2	8	1
48	1.6	11	8
49	-0.4	-2	·
50	2.0	5	2
51	4.3	-7	·
52	5.3	23	1
53	4.2	10	-2
54	·	·	6
55	-3.0	8	·
56	3.2	-2	6
57	5.1	1	-2
58	2.0	-9	·
59	-1.8	5	-6
60	6.4	-2	1

Next part:
nr	SMILES	Mtb hypoxia inh	Mtb hypoxia inh growth	Bead autofluor	PrP 5UTR inh
61	O=C1OC(c2ccc(F)cc2)=N/C1=C\c1ccc(Br)o1	14	0	4929	-15
62	Fc1ccc(NCc2cn3ccccc3n2)cc1	12	10	3472	-54
63	COc1ccc(-c2nnc(S/C(=C/c3ccc(Cl)cc3)C(=O)O)o2)cc1	-2	-5	4040	-5
64	CC(C)CN(C(=O)CSc1nncn1C)C1CCS(=O)(=O)C1 (stereo unspecified)	16	10	3061	-13
65	CCOC(=O)N1CCN(Cc2nc(N)nc(Nc3ccc(OCC)cc3)n2)CC1	-2	-4	7965	-7
66	Cc1cc(C)c(S(=O)(=O)N2CCOC2CNC(=O)C(=O)NCCN(C)C)c(C)c1 (stereo unspecified)	-4	-1	4829	-32
67	Cc1c(Nc2nc(C(F)(F)F)nc3ccccc23)c(=O)n(-c2ccccc2)n1C	-2	13	2076	-19
68	COCCN1C(=O)N[C@@H](c2ccccc2)[C@H](C(C)=O)[C@H]1C	·	·	3705	-2
69	N#CCC(=O)N1CCN(Cc2ccc3c(c2)OCO3)CC1	-11	-14	4643	·
70	CCOc1ccccc1-c1cc(C(=O)N2CCOCC2)c2ccccc2n1	15	11	5104	-15
71	COc1ccc(C)cc1NS(=O)(=O)c1ccc(NS(=O)(=O)c2ccc(NC(C)=O)cc2)cc1	0	-5	7098	-2
72	CC(C)CCNCC1OCc2ccccc2CO1	-9	-5	2020	-8
73	CCN(CC)CCOC(=O)c1c(C)n(C)c2ccc(OC)cc12	13	7	2861	-16
74	CC1CN(S(=O)(=O)c2ccccc2)CN1C(=O)N1CCOCC1 (stereo unspecified)	12	-4	3961	-10

nr	Sa RN4220 lethal	Sa ugtP lethal	BJeLR lethal
61	10	7	-9
62	-4.9	-1	-4
63	7.6	1	-2
64	4.2	10	·
65	6.7	10	-1
66	-0.1	5	0
67	-3.0	5	10
68	·	·	5
69	-4.6	-2	3
70	-0.4	5	-3
71	0.9	9	1
72	-0.8	2	4
73	7.0	1	-2
74	2.6	-2	5

Shown field by field: part of the list above
66: Cc1cc(C)c(S(=O)(=O)N2CCOC2CNC(=O)C(=O)NCCN(C)C)c(C)c1 (stereo unspecified)
- Mtb hypoxia inh: -4
- Mtb hypoxia inh growth: -1
- Bead autofluor: 4829
- PrP 5UTR inh: -32
- Sa RN4220 lethal: -0.1
- Sa ugtP lethal: 5
- BJeLR lethal: 0

68: COCCN1C(=O)N[C@@H](c2ccccc2)[C@H](C(C)=O)[C@H]1C
- Mtb hypoxia inh: ·
- Mtb hypoxia inh growth: ·
- Bead autofluor: 3705
- PrP 5UTR inh: -2
- Sa RN4220 lethal: ·
- Sa ugtP lethal: ·
- BJeLR lethal: 5

63: COc1ccc(-c2nnc(S/C(=C/c3ccc(Cl)cc3)C(=O)O)o2)cc1
- Mtb hypoxia inh: -2
- Mtb hypoxia inh growth: -5
- Bead autofluor: 4040
- PrP 5UTR inh: -5
- Sa RN4220 lethal: 7.6
- Sa ugtP lethal: 1
- BJeLR lethal: -2

65: CCOC(=O)N1CCN(Cc2nc(N)nc(Nc3ccc(OCC)cc3)n2)CC1
- Mtb hypoxia inh: -2
- Mtb hypoxia inh growth: -4
- Bead autofluor: 7965
- PrP 5UTR inh: -7
- Sa RN4220 lethal: 6.7
- Sa ugtP lethal: 10
- BJeLR lethal: -1
